Source: PubChem BioAssay
RE007 growth inh – less growth of the S. pombe RE007 Vpr strain; AID 651644; 360,000 tested, 0.21% active; Potency, µM (top dose mostly 92.2 µM), without a hit: at the top dose activity change, negative = less growth; S. pombe RE007 Vpr strain, BacTiter-Glo ATP luminescence, 24 h; control for the full effect not named in the record; active = well fitted falling curve with a large enough effect; inconclusive = small, poorly fitted or top-dose-only effect; inactive = no such curve, though single readings can be large or run the other way;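 further: on the % scale 0 is the no-effect control and ±100 the full control effect; nearly all actives have a fitted effect of over 50% in size; the assay follows cell death caused by Vpr and the record does not say whether a fall means rescue or toxicity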
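Fission yeast RE007 carrying one integrated HIV-1 vpr copy, seeded at OD 0.01 in PMG+AL medium with 23 nL pinned compound. Grown 24 h at 30 degrees; viability read by BacTiter-Glo luminescence after 5 min.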
Lassa entry inh – Lassa virus entry inhibition. 300,000 tested, 1.2% active. AID 540256. Lassa virus pseudotype entry inhibition, cell reporter; control for the full effect not named in the record. Potency, µM (titrated, usually from 37.9 µM), without a hit: at the highest dose activity change, negative = inhibition, usual class: inhibitors; active means well fitted inhibition curve with a large enough effect; inconclusive means small, poorly fitted or top-dose-only effect, or effect the other way; inactive means flat fitted curve, though single readings scatter; tested in HEK293 cells; further: on the % scale 0 is the no-effect control and ±100 the full control effect; nearly all actives have a fitted effect of over 50% in size; luciferase read-out
NS1 function inh – influenza NS1 inhibition | 270,000 tested, 0.4% active | Potency, µM (highest dose often 46.1 µM), without a hit: top-dose activity, positive = more growth | AID 2326 | S. cerevisiae slowed by influenza A NS1, growth recovery by OD600; active means well fitted rising curve with a large enough effect; inconclusive means small, poorly fitted or top-dose-only effect; inactive means no such curve, though single readings can be large or run the other way; further: nearly all actives have a fitted effect of over 50% in size
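A cell-based growth assay was used: compounds that relieve NS1-induced slow growth of budding yeast raise OD600. Assay medium was yeast nitrogen base with ammonium sulphate and -URA supplement, pH 6.0, with 2% galactose.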
Cruzain inh noDet – cruzain (T. cruzi) inhibition without detergent. P25779. Potency, µM, without a hit: max response, negative = inhibition, hits mostly inhibitors. purified cruzain, Z-FR-AMC fluorescence, no detergent. 200,000 tested, 2.3% active;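 further: plate controls were enzyme without inhibitor for no effect and buffer without enzyme for full effect; nearly all actives have a fitted effect of over 40% in size; top concentration of the series not given in the record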
Target sequence (P25779 123-467 limits assumed): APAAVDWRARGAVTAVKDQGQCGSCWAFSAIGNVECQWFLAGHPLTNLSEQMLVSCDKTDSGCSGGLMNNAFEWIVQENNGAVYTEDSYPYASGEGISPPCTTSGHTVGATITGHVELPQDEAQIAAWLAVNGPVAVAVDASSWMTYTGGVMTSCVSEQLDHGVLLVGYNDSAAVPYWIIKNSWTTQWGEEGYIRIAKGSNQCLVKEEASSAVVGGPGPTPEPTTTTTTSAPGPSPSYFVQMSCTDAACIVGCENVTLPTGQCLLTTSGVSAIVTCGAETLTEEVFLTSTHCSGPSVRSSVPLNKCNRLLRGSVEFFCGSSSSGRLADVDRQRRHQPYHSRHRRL
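Detergent-free condition (0.00005% Triton X-100) in acetate buffer pH 5.5 with DTT. 1.5 nM enzyme and compound were pre-mixed 15 min, then 2 uM Z-FR-AMC substrate added; reaction progress from fluorescence change between first and third reads (60 s).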
Marburg entry inh – Marburg virus entry inhibition; Marburg virus pseudotyped entry inhibition, cell reporter; control for the full effect not named in the record; about a third of the inactives were read at about 46 µM; 300,000 tested, 1.8% active; AID 540276; Potency, µM (doses to about 37.8 µM), without a hit: at the top dose activity change, negative = inhibition, hits mostly inhibitors; active = well fitted inhibition curve with a large enough effect; inconclusive = small, poorly fitted or top-dose-only effect, or effect the other way; inactive = flat fitted curve, though single readings scatter; tested in HEK293 cells; about a fifth of its hits are not listed in these tables; further: on the % scale 0 is the no-effect control and ±100 the full control effect; luciferase read-out
StopGo reporter – lowers the luciferase signal of an FMDV 2A StopGo reporter. 410,000 tested, 1.2% active. human cells with a luciferase reporter of 2A StopGo recoding; control for the full effect not named in the record. AID 1159524. Potency, µM (doses to about 57.9 µM), inactives show at the highest dose signal change, negative = less light; active = well fitted falling curve with a large enough effect; inconclusive = small, poorly fitted or top-dose-only effect; inactive = no such curve, though single readings can be large or run the other way; tested in HEK293T cells; further: on the % scale 0 is the no-effect control and ±100 the full control effect; nearly all actives have a fitted effect of over 45% in size; luciferase light after 4 h
Cruzain Triton – inhibitors of Trypanosoma cruzi cruzain with detergent; purified cruzain, Z-FR-AMC fluorescence, 0.01% Triton; AID 1478; Potency, µM, without a hit: max response, negative = inhibition, hits mostly inhibitors; P25779; 200,000 tested, 0.43% active;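 further: plate controls were neutral wells for no effect and buffer without enzyme for full effect; nearly all actives have a fitted effect of over 40% in size; top concentration of the series not given in the record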
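Cruzain (1.5 nM) preincubated 15 min at RT with compound in 100 mM sodium acetate pH 5.5, 5 mM DTT, 0.01% Triton X-100. Reaction started with 2 uM Z-FR-AMC; AMC fluorescence (ex 360/em 450 nm) change over 60 s gave rate.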
SARS PLP yeast – blocks SARS-CoV papain-like protease in a yeast assay; 330,000 tested, 0.19% active; Potency, µM (top dose mostly 32.9 µM), for inactives: at the highest dose activity, positive = growth rescue; S. cerevisiae expressing SARS-CoV PLpro, growth rescue; control for the full effect not named in the record; active means well fitted rising curve with a large enough effect; inconclusive means small, poorly fitted or top-dose-only effect; inactive means no such curve, though single readings can be large or run the other way; further: 0% is about no effect; nearly all actives have a fitted effect of over 55% in size; growth read by luminescence after 48 h
Active calls of the source: *; & = joins results of further samples; [ ] = dose if it differs, or a comment. Unless noted, the call rests on the fitted dose curve; in most records, active means well fitted curve in the direction sought with a large enough effect; inconclusive means small, poorly fitted or top-dose-only effect, or another doubt; inactive means no such curve, though single readings can be large; an effect the other way counts as inactive or inconclusive. Potency means the concentration at half of the fitted maximal effect. Not a hit list; any-hit rate near 4.6%.

`CCOc1ccc(CCNC(=O)C2CCCN(c3nn4c(=O)cc(C)nc4s3)C2)cc1OCC` (stereo not given) gave RE007 growth inh 5%, Lassa entry inh -3%, NS1 function inh -20%, Cruzain inh noDet 12%, Marburg entry inh inconclusive, StopGo reporter 0%, Cruzain Triton -0.8% and SARS PLP yeast -4%.
`CCC1CCCCN1c1nc(-c2cccc(OC)c2O)nc2ccccc12` (stereo not given) gave RE007 growth inh 15%, Lassa entry inh -6%, NS1 function inh 12%, Cruzain inh noDet inconclusive, Marburg entry inh inconclusive, StopGo reporter -20%, Cruzain Triton -6.5% and SARS PLP yeast 1%.
Screening CN1CCC(=NNC(=O)c2ccc(N(Cc3ccccc3Cl)S(C)(=O)=O)cc2)CC1 returned Lassa entry inh inconclusive, NS1 function inh 27%, Cruzain inh noDet -16%, Marburg entry inh 1%, StopGo reporter -24%, Cruzain Triton -3.0% and SARS PLP yeast 30%.
`COC(=O)Cn1c(=O)c2c(nc3n2CCCN3Cc2ccccc2)n(C)c1=O` gave RE007 growth inh 1%, Lassa entry inh -4%[46.1 µM], NS1 function inh -4%, Marburg entry inh 8%[46.1 µM], StopGo reporter 1% and SARS PLP yeast -2%.
`O=C(Cc1ccc([N+](=O)[O-])cc1)NCc1ccccn1` gave RE007 growth inh -1%, Lassa entry inh -1%[46.1 µM], NS1 function inh 4%, Marburg entry inh 15%[46.1 µM], StopGo reporter 3% and SARS PLP yeast 0%.
`Cc1cccc(NC(=S)N2CCCC2)c1` gave RE007 growth inh -1%, Lassa entry inh 6%[46.1 µM], NS1 function inh 1%, Marburg entry inh inconclusive, StopGo reporter 0% and SARS PLP yeast -2%.
`N/C(=N\c1nc2c(c(=O)[nH]1)CCC2)Nc1ccccc1C(F)(F)F` gave RE007 growth inh 14%, Lassa entry inh -15%, NS1 function inh 9%, Cruzain inh noDet -17%, Marburg entry inh -18%, StopGo reporter 19%, Cruzain Triton 2.9% and SARS PLP yeast 3%.
`Nc1nc(SCC(=O)NC2CCCCC2)[nH]c(=O)c1-c1ccccc1` gave RE007 growth inh 3%, Lassa entry inh -4%, NS1 function inh inconclusive, Cruzain inh noDet -7%, Marburg entry inh 0%, Cruzain Triton 3.0% and SARS PLP yeast 1%.
For CCCSCCCNC(=O)c1ccc2c(c1)nc1n2CCCCC1 the results were Lassa entry inh -1%[46.1 µM], Cruzain inh noDet 0%, StopGo reporter 25% and Cruzain Triton 0.6%.
`COc1ccc(NC(=O)Cn2c(=O)n(CCC(=O)NCC3CCCO3)c(=O)c3cc(OC)c(OC)cc32)cc1` (stereo not given) gave RE007 growth inh -2%, Lassa entry inh -11%[46.1 µM], NS1 function inh -21%, Cruzain inh noDet 9%, Marburg entry inh -9%&13%[46.1 µM], StopGo reporter -5%&-1%, Cruzain Triton -3.7% and SARS PLP yeast 0%.
CCOC(=O)C1CCN(C(=O)Cn2c(=O)oc3cc(S(=O)(=O)N4CCCC4)ccc32)CC1 was read as RE007 growth inh -3%, NS1 function inh -20%, StopGo reporter inconclusive and SARS PLP yeast 0%.
Screening CCOC(=O)N1CCN(CCC(=O)Nc2cc(C)ccc2C)CC1 returned RE007 growth inh 11%, Lassa entry inh 10%[46.1 µM], NS1 function inh 5%, Cruzain inh noDet -7%, Marburg entry inh 4%&4%[46.1 µM], StopGo reporter -7%&-5%, Cruzain Triton -1.8% and SARS PLP yeast 3%.
For COc1ccc(Nc2oc(-c3cccs3)nc2C#N)cc1 the results were RE007 growth inh -2%, Lassa entry inh inconclusive, NS1 function inh -6%, Cruzain inh noDet -21%, Marburg entry inh inconclusive, StopGo reporter 25%, Cruzain Triton -8.0% and SARS PLP yeast -2%.
Screening Cc1sc(N/N=C/c2cc([N+](=O)[O-])ccc2O)nc1-c1ccccc1 returned RE007 growth inh 4%, NS1 function inh 3%, StopGo reporter 17% and SARS PLP yeast -1%.
`O=C(NC(Cc1ccccc1)C(=O)O)c1ccco1` (stereo not given) gave RE007 growth inh 54%, Lassa entry inh 3%, NS1 function inh 3%, Marburg entry inh 1%[46.1 µM], StopGo reporter 2% and SARS PLP yeast 0%.
Screening O=C(OCc1ccccc1)c1ccccc1 returned RE007 growth inh -9%, Cruzain inh noDet 6%, StopGo reporter 14%&49% and Cruzain Triton -5.8%.
O=C(COc1ccc(Cl)cc1)Nc1ccc(C(=O)O)cc1NC(=O)COc1ccc(Cl)cc1 was read as RE007 growth inh -1%, Lassa entry inh -2%[46.1 µM], NS1 function inh 3%, Marburg entry inh 15%[46.1 µM], StopGo reporter 5% and SARS PLP yeast inconclusive.
Screening CN1CCN(C(=O)C23CCC(C)(C(=O)C2Br)C3(C)C)CC1 (stereo not given) returned RE007 growth inh 8%, Lassa entry inh 11%, NS1 function inh 4%, Marburg entry inh 7%[46.1 µM], StopGo reporter -4% and SARS PLP yeast -1%.
`CCOc1ccc(N(C)Cc2cc(=O)oc3ccc(OC)cc23)cc1` gave RE007 growth inh 6%, Lassa entry inh inconclusive, NS1 function inh -16%, Marburg entry inh inconclusive, StopGo reporter -28% and SARS PLP yeast -7%.
For O=C(/C=C/c1ccccc1)N/C(=C/c1ccccc1)C(=O)NCCCO the results were RE007 growth inh 33%, Lassa entry inh 3%, NS1 function inh -7%, Cruzain inh noDet -2%, Marburg entry inh inconclusive, StopGo reporter -11%, Cruzain Triton -4.5% and SARS PLP yeast -4%.
C/C(=N\NC(=O)Cc1ccccc1)c1cccs1 was read as RE007 growth inh -7%, Lassa entry inh -1%, NS1 function inh -1%, Cruzain inh noDet 7%, Marburg entry inh 0%, Cruzain Triton 4.0% and SARS PLP yeast 5%.
`CCOCCCNC(=O)CCc1nnc2ccc(N3CCCCC3)nn12` gave RE007 growth inh 12%, NS1 function inh 0%, StopGo reporter 3% and SARS PLP yeast 1%.
For C1CCN(CCCNC2C3CC4CC(C3)CC2C4)C1 (stereo not given) the results were RE007 growth inh -17%, Lassa entry inh inconclusive, NS1 function inh -4%, Cruzain inh noDet 2%, Marburg entry inh inconclusive, StopGo reporter -1%, Cruzain Triton -1.4% and SARS PLP yeast 10%.
Screening Cc1cccc(C)c1NC(=S)N(CCCN1CCN(C)CC1)Cc1cccs1 returned RE007 growth inh 41%, Lassa entry inh -2%, Marburg entry inh 10%[46.1 µM], StopGo reporter -9% and SARS PLP yeast 3%.
`Cc1cc(OCC(=O)Nc2ccc(S(=O)(=O)N3CCN(C)CC3)cc2)cc(C)c1Cl` gave RE007 growth inh 11%, Lassa entry inh -5%, NS1 function inh -43%, Cruzain inh noDet 1%, Marburg entry inh inconclusive, StopGo reporter -30%, Cruzain Triton -0.1% and SARS PLP yeast -1%.
`Cc1cccc[n+]1CC(=O)Nc1ccc([N+](=O)[O-])cc1` gave RE007 growth inh 3%, NS1 function inh 5%, StopGo reporter -19% and SARS PLP yeast 20%.
`COc1ccc(C2CC(c3ccccc3O)=NN2C(=O)c2ccccc2)cc1OC` (stereo not given) gave RE007 growth inh 1%, NS1 function inh 5%, StopGo reporter -9% and SARS PLP yeast 6%.
O=C(N/N=C/c1ccccc1)c1cc(=O)[nH]c2ccccc12 was read as RE007 growth inh -9%, Lassa entry inh inconclusive, NS1 function inh -6%, Cruzain inh noDet -11%, Marburg entry inh inconclusive, StopGo reporter -7%, Cruzain Triton -6.4% and SARS PLP yeast -14%.
For COc1ccc2cc(C(c3nnnn3Cc3ccc(F)cc3)N3CCCCCC3)c(=O)[nH]c2c1 (stereo not given) the results were RE007 growth inh 0%, Lassa entry inh -14%, NS1 function inh -12%, Cruzain inh noDet -8%, Marburg entry inh 2%&0%, StopGo reporter -8%, Cruzain Triton -9.4% and SARS PLP yeast 2%.
O=C(Nc1c(C(=O)N2CCN(c3ccccc3F)CC2)oc2ccccc12)c1cccc(F)c1 was read as Lassa entry inh 1%[46.1 µM], Cruzain inh noDet 3%, StopGo reporter 13% and Cruzain Triton -1.4%.
`Cc1cc(NC(=O)CSCC(=O)N(C)Cc2ccc(Cl)cc2Cl)no1` gave RE007 growth inh -25%, Lassa entry inh -2%, Marburg entry inh 6%, StopGo reporter -2% and SARS PLP yeast -11%.
For CCOc1ccc(N/C=C/C(=O)c2ccc(OC)cc2)c([N+](=O)[O-])c1 the results were RE007 growth inh -11%, Lassa entry inh 15%, NS1 function inh 15%, Cruzain inh noDet -4%, Marburg entry inh -1%, Cruzain Triton 3.3% and SARS PLP yeast 6%.
`CC(C)(C)OC(=O)N1CCC(c2c(C(=O)NCCN3CCC(Cc4ccccc4)CC3)cnn2-c2ccccc2)CC1` gave Lassa entry inh inconclusive, Cruzain inh noDet -6%, StopGo reporter inconclusive and Cruzain Triton -0.3%.
For CCN(CC)S(=O)(=O)c1cccc(NC(=O)CCSc2ccc(Cl)cc2)c1 the results were RE007 growth inh 17%, Lassa entry inh 13µM*, NS1 function inh -40%, Cruzain inh noDet 11%, Marburg entry inh inconclusive, StopGo reporter -24%, Cruzain Triton -4.9% and SARS PLP yeast -20%.
Screening COc1ccc(-c2c(-c3ccc(O)cc3O)n[nH]c2C)cc1OC returned RE007 growth inh 6%, Lassa entry inh inconclusive, NS1 function inh inconclusive, Cruzain inh noDet 0%, Marburg entry inh inconclusive, StopGo reporter inconclusive, Cruzain Triton 6.9% and SARS PLP yeast 7%.
Screening CCCCOP(=O)(c1ccc(N(C)C)cc1)C(O)c1ccc(C(C)C)cc1 (stereo not given) returned RE007 growth inh 6%, NS1 function inh 4%, StopGo reporter 3% and SARS PLP yeast 0%.
`CCc1nc(SCC(=O)Nc2cc(C)on2)c2c(C)c(C)sc2n1` gave RE007 growth inh 3%, Lassa entry inh -11%, NS1 function inh 1%, Cruzain inh noDet -6%, Marburg entry inh -2%, StopGo reporter -11%, Cruzain Triton -4.2% and SARS PLP yeast -8%.
Screening Cc1ccccc1-n1nnnc1-c1ccccc1 returned RE007 growth inh 3%, Lassa entry inh 2%, NS1 function inh 4%, Cruzain inh noDet 3%, Marburg entry inh -2%, StopGo reporter -19%, Cruzain Triton -1.0% and SARS PLP yeast -4%.
